Ecoli rRNA inh: selective bacterial rRNA inhibition in E. coli; AID 720706; 350,000 tested, 1.6% active; GFP signal change (wild-type ribosome), % (test concentration not listed); E. coli WT GFP vs humanized-ribosome RFP mutants, fluorescence, 24 h; active compounds read low; DMSO median 0, no signal -100;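 active means significant combined selectivity score with lowered wild-type GFP, culture density cut under 30%, mutant RFP and density less affected; inactive means any of these conditions unmet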; further: one replicate is shown; some compounds called inactive have numbers as strong as hits
Ecoli growth: inhibitors of Escherichia coli growth; OD600 absorbance (no concentration beside the values); 330,000 tested, 0.21% active; AID 1053175; OD600, 23 h; active compounds read low;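 active means OD600 absorbance below the run mean of sample wells minus 3.6 SD, in any replicate, cut at about 0.56 in these data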;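 further: stock transfer was 300 nL into about 60 µL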
T cruzi inh: T. cruzi replication inhibition; T. cruzi beta-gal in NIH3T3, luminescence, 90 h; inhibition, % (no concentration beside the values); 300,000 tested, 1.4% active; AID 1885;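 active means mean inhibition across valid replicates above about 55%, limit read from the data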;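 further: signal also drops with host cell toxicity which is not excluded here; 0% = plate median of DMSO wells and 100% = zero luminescence signal; higher percent means less beta-gal luminescence so fewer parasites; stock transfer was 50 nL into about 50 µL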
Beta cell apopt: beta cell apoptosis inhibition | protection from apoptosis, % (concentration not given with the values) | 300,000 tested, 0.8% active | INS-1E cytokine-induced death, ATP luminescence, 48 h; percent of positive-control rescue, neutral wells zero | AID 435005;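 active means all replicates at 75% or more, or half of them and the mean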;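 further: 0% = cytokine-treated negative control wells and 100% = positive control rescue; higher means more ATP so stronger rescue from cytokine killing; wells of about 40 µL received 100 nL stock; the first replicate is given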
FGF22 binding: shifts melting point of recombinant human FGF22 | 340,000 tested, 1.5% active | recombinant FGF22 thermal shift, SYPRO orange fluorescence; percent of sucrose octasulfate shift, DMSO zero | calls only at 9.99 µM | Q9HCT0;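 active means melting point raised past a set limit in the mean and every replicate; three in four hits are not shown here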
Target sequence (Q9HCT0 whole entry, looked up): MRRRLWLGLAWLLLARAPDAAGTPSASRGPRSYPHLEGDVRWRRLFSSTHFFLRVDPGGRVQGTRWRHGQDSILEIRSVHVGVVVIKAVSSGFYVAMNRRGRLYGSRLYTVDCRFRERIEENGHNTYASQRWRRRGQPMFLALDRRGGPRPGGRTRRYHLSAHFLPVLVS
AF4-AF9 inh: blocks AF4 peptide binding to human AF9. P42568. AlphaScreen, biotin-AF4 peptide binding to FLAG-AF9. inhibition, % at 10 µM. 350,000 tested, 0.47% active. AID 651704;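 active means every replicate reaching a set inhibition limit, whatever the replicate mean, cut at about 25% in these data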;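 further: 0% = plate neutral control median and 100% = total signal loss; the record names both 10 and 1 µM as test concentration; the first replicate is given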
Target sequence (P42568 whole entry, looked up): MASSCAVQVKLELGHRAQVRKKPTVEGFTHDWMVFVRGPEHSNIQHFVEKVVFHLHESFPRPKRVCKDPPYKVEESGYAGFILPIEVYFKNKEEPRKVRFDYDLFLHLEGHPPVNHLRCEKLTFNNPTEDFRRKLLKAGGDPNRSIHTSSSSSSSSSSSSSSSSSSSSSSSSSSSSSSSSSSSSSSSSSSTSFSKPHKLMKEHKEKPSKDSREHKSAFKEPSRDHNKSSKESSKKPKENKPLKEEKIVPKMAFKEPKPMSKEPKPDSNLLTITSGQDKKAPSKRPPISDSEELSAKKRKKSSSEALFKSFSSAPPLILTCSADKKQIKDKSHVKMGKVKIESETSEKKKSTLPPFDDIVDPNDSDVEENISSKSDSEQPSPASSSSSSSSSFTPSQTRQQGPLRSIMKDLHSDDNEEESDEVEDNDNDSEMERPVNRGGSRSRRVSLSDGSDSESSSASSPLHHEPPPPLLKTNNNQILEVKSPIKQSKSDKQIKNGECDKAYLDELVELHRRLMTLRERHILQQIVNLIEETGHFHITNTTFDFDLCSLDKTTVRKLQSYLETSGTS
Bfl-1 A1 inh: inhibitors of the anti-apoptotic protein A1, read as caspase activation. caspase activation, % (concentration not given with the values). MEF A1-2A-BIM cells, Caspase-Glo 3/7 luminescence, 3 h; percent of clofoctol response, vehicle zero. 330,000 tested, 0.066% active;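 active means over half of replicate activation scores above 10%, or exactly half above 10 with the replicate mean above 10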;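 further: wells of about 30 µL received 50 nL stock; many hits fall short of the cut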
UCH37 inh: blocks the human deubiquitinase UCH37. purified proteasome/UCH37, Ub-AMC cleavage fluorescence. Q9Y5K5. inhibition, % (test concentration not listed). 330,000 tested, 0.33% active;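 active means mean of two replicates above 20%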;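 further: 0% = compound-free wells with enzyme and 100% = wells lacking proteasome; stock transfer was 100 nL into about 20 µL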
Target sequence (Q9Y5K5 whole entry, looked up): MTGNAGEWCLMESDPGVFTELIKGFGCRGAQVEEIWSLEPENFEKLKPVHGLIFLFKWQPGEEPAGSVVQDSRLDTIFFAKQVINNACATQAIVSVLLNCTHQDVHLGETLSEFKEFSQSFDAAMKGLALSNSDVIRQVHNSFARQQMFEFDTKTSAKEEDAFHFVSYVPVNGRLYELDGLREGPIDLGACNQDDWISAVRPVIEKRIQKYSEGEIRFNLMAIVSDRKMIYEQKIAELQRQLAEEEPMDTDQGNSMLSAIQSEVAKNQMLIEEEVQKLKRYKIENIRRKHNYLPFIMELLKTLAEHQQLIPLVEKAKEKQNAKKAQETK
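Material: Human UCH37 enzyme supplied as purified proteasome complex | Schedule: 30 min compound-proteasome preincubation then 25 min substrate reaction, room temperature | Detection: AMC fluorescence from Ub-AMC cleavage, excitation 355 nm, emission 460 nm | Benchmarks: Wells without proteasome as full block, compound-free enzyme plus substrate as uninhibited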
Ecoli rRNA inh OD600: further read-out of Ecoli rRNA inh, marked with its call; OD600 change, %; measured here: OD600 growth;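 optical density of the mix in the first replicate; 0 = DMSO median and -100 = no signal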
Ecoli rRNA inh RFP: second read-out of Ecoli rRNA inh, no call of its own (marks repeat the call); RFP signal change, %; measured here: RFP humanized mutant strains;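 first replicate; 0 = DMSO median and -100 = no signal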
* = called active by the depositor; i = inactive; · = no result given.

SMILES	Ecoli rRNA inh	Ecoli rRNA inh OD600	Ecoli rRNA inh RFP	Ecoli growth	T cruzi inh	Beta cell apopt	FGF22 binding	AF4-AF9 inh	Bfl-1 A1 inh	UCH37 inh
CCOC(=O)c1cccc(C2=CC(=O)CC(C)(C)C2)c1	4	1	5.2	0.78	·	5	i	-1.7	0.6	2.9
CN1CC[C@]23c4ccccc4N[C@H]1[C@]21CCN(C)[C@H]3Nc2ccccc21	·	·	·	·	·	-3	i	12	-1.0	2.7
N#Cc1ccc(OCCN2C(=O)NC3(CCSC3)C2=O)cc1 (centres undefined)	·	·	·	0.71	-12	-9	·	·	0.0	2.3
CCNC(=S)Nc1ccc(N2CCCCC2)cc1	8	1	2.7	0.61	10	0	i	22	0.5	1.5
COc1ccc(NC(=S)N(CCC(C)C)C(C)c2ccncc2)cc1 (centres undefined)	4	5	-1.7	0.67	4	-3	i	0.2	0.8	1.4
O=C1C2C3c4ccccc4C(c4ccccc43)C2c2nc3ccccc3n21 (centres undefined)	·	·	·	0.73	-6	3	·	·	0.1	4.4
Cc1cc(C)cc(N(C(=O)c2snc(C(N)=O)c2N)C(C(=O)NCC2CCCO2)c2ccc(C)o2)c1 (centres undefined)	0	-9	0.2	0.56	6	1	i	-12	0.4	1.7
CN(C)c1ccc(/C=N/NC(=O)C[n+]2ccccc2)cc1	20	2	-1.1	·	-2	-2	i	2.5	-0.2	·
COc1cc(C(c2c(O)nc(SC)[nH]c2=O)c2c(O)nc(SC)[nH]c2=O)cc(OC)c1OC	18	13	0.9	0.71	-12	-7	i	-15	-0.2	1.5
Brc1ccc2ncnc(Nc3ccc(N4CCOCC4)cc3)c2c1	·	·	·	0.66	62*	-9	·	·	0.1	9.4
CCOc1ccc(N2CC(C(=O)Nc3ccc4c(c3)OCO4)CC2=O)cc1 (centres undefined)	2	15	-1.5	0.73	-13	2	i	0.3	1.2	1.7
Cc1ccc(S(=O)(=O)NC(N)=NCCc2ccc(Cl)cc2)cc1C	·	·	·	0.69	8	-21	·	·	-0.3	2.4
COc1cc(C=O)ccc1OCc1ccncc1	10	10	-0.5	0.61	-8	-2	i	-2.1	0.2	1.8
CCN(CC)S(=O)(=O)c1cccc(C(=O)N[C@H](C(=O)OCC(=O)Nc2ccccc2)C(C)C)c1	·	·	·	0.68	12	-2	·	·	-0.5	0.5
CCCn1c(SCc2ccccn2)nc2c1c(=O)n(C)c(=O)n2C	·	·	·	0.69	22	·	·	·	0.2	-1.4
CC1CCCN(C(=O)CSc2nc3ncccc3[nH]2)C1 (centres undefined)	1	0	-2.9	0.69	2	-8	i	0.6	0.0	4.4
CCOC(=O)c1cc(C(=O)c2ccccc2O)cn2c(=O)c3c(C)c(C)sc3nc12	·	·	·	0.72	6	10	·	·	0.4	5.9
COc1ccc2cc(C(=O)NCc3ccccc3)[nH]c2c1	1	10	1.5	0.69	3	-1	i	-1.6	-0.8	1.0
COc1ccc(CC2(CO)CCN(Cc3cnn(-c4ccc(F)cc4)c3)CC2)cc1	4	0	-8.5	0.68	37	4	i	-5.6	0.2	4.8
O=C(O)C1Cc2ccccc2CN1C(=O)c1ccccc1Cl (centres undefined)	·	·	·	0.69	11	-3	·	·	1.8	1.0
COc1cc(-c2noc(-c3ccco3)n2)cc(OC)c1OC	·	·	·	0.73	8	2	·	·	-0.3	-0.6
Cc1ccc(C(=O)CSc2nnc(N)s2)c(C)c1	1	7	1.9	0.68	-6	-6	i	0.3	-1.7	-0.9
CCC1Oc2ccc(C)cc2N(CC(=O)NCC2CCCO2)C1=O (centres undefined)	5	1	-2.8	0.7	-7	-4	i	-3.2	0.4	4.9
Cc1ccc(S(=O)(=O)N2CCOCC2)cc1NC(=O)COC(=O)c1cncc(Br)c1	15	5	2.9	0.62	·	-3	i	-2.0	1.2	0.0
Cc1cccc(NC(=S)N2CCC(N(C)CC3CCCO3)CC2)c1C (centres undefined)	·	·	·	0.62	7	-5	·	·	-0.4	3.4

Next entries
SMILES	Ecoli rRNA inh	Ecoli rRNA inh OD600	Ecoli rRNA inh RFP	Ecoli growth	T cruzi inh	Beta cell apopt	FGF22 binding	AF4-AF9 inh	Bfl-1 A1 inh	UCH37 inh
O=C1C(C=NCc2ccncc2)=C(O)c2ccccc21	·	·	·	0.66	-4	-5	·	·	0.4	2.3
COc1ccccc1OCCC(=O)OCC(=O)NCc1ccc(F)cc1	·	·	·	0.68	·	-2	i	-3.2	-0.4	0.4
CCC(C)NC(=O)C1CCN(CCCc2ccccc2)CC1 (centres undefined)	3	7	3.8	0.63	-40	2	i	-2.3	0.2	3.0
COc1ccc(C(=O)N2CCN(C(=O)c3ccco3)CC2)cc1	·	·	·	0.75	-21	-8	·	·	0.4	-0.3
COc1ccc(OC)c(CN2CCN(C(=O)CNC(=O)c3ccc(C(C)(C)C)cc3)CC2)c1	-24	-21	1.1	0.65	·	3	i	4.7	-0.3	1.0
COc1ccccc1-n1cnc2cc(NS(=O)(=O)c3ccc(Br)cc3)ccc21	-11	-27	0.2	0.73	12	12	·	·	0.5	3.3
COc1ccc(CCNC(=O)C(=O)NCC2OCCN2S(=O)(=O)c2ccccc2)cc1OC (centres undefined)	-7	-3	-6.4	0.83	-2	-4	i	3.9	-0.4	2.6
COc1ccc(/C=C/C(=O)c2ccccc2)cc1COc1ccccc1F	·	·	·	0.69	13	7	·	·	0.5	1.1
Cc1nn(C)c(NC(=O)c2ccccc2Cl)c1Br	5	17	0.0	0.68	-1	-3	i	-1.8	-1.0	-0.4
CC(C)OC(=O)c1cc2ccccc2oc1=O	·	·	·	0.68	-19	-4	·	·	-0.9	-15
CCOC(=O)CCN(Cc1sccc1C)S(=O)(=O)c1ccc(F)cc1	·	·	·	0.69	-17	·	·	·	0.2	5.4
CC(C)c1ccccc1OCC(=O)Nc1cc(S(=O)(=O)N2CCOCC2)ccc1N1CCCC1	-3	-12	8.0	0.63	32	3	i	6.4	0.0	-0.7
CN(C(=O)COC(=O)c1ccccc1Nc1ccccc1)C1CCS(=O)(=O)C1 (centres undefined)	·	·	·	0.67	6	0	·	·	0.1	-2.2
COc1ccccc1-c1nc2c3ccccc3nc(=S)n2[nH]1	-27*	-7.2*	0.3*	0.61	-6	11	i	0.2	-1.5	4.5
COc1ccccc1NC(=O)CCC(=O)OCc1ccc([N+](=O)[O-])cc1	0	4	-1.2	0.72	-11	-3	i	-0.1	-0.6	-1.3
Cc1ccccc1CC(=O)N1CCN(C(=O)C2CCCO2)CC1 (centres undefined)	7	3	0.0	0.68	-14	-2	i	-1.0	0.6	-2.3
CS(=O)(=O)N1CC(C(=O)O)Oc2ccc(CC(=O)O)cc21 (centres undefined)	22	15	-1.7	0.7	-7	-3	i	-1.8	0.0	-0.4
CN(C)C(=O)COC(=O)c1ccccc1NC(=O)c1ccco1	12	-1	-0.9	·	-6	-5	i	0.7	-0.1	·
CN1CCN(CCCNC(=O)c2cn(C3CCCCC3)c(=O)c3c2c2ccccc2n3C)CC1	·	·	·	0.69	12	-4	·	·	0.2	-71
NS(=O)(=O)c1ccc(NC(=O)CSc2nnc(Cc3cccs3)n2-c2ccccc2)cc1	·	·	·	0.76	-4	-5	·	·	-1.2	-5.2
O=C(c1cc2c(cc1Br)OCCCO2)N1CCCCC1	·	·	·	0.69	18	-3	·	·	-0.5	4.6
N#C/C(=C\c1ccc(F)c(Cl)c1)S(=O)(=O)c1ccccn1	5	0	0.6	0.71	-10	-7	i	-0.5	0.2	6.4
Cc1ccccc1C(=O)N1CCN(c2ccc(NC(=O)c3ccc([N+](=O)[O-])o3)cc2)CC1	8	14	-1.2	0.68	58*	22	i	-19	-0.6	2.9
CCCN(CC(=O)Nc1ccccc1C)C(=O)c1nn(CC)c(=O)c2ccccc12	5	14	0.3	0.63	·	0	i	-0.3	0.0	-1.2
CCCCCC(O)c1cccc(OCc2ccc3ccccc3n2)c1 (centres undefined)	·	·	·	0.69	13	-1	i	-0.2	-0.7	-1.2

New compounds follow.
SMILES	Ecoli rRNA inh	Ecoli rRNA inh OD600	Ecoli rRNA inh RFP	Ecoli growth	T cruzi inh	Beta cell apopt	FGF22 binding	AF4-AF9 inh	Bfl-1 A1 inh	UCH37 inh
OCCN(Cc1ccccc1)CC1CC=CCC1 (centres undefined)	·	·	·	0.69	-12	-1	·	·	-1.1	3.8
O=S(=O)(c1ccc(Br)cc1)c1nc(-c2ccco2)oc1NCCCn1ccnc1	-3	-7	2.7	0.68	·	·	i	4.1	·	2.8
CC(=O)Nc1ccc(/C=N/NC(=O)c2cc3ccccc3nc2C)cc1	4	7	-4.4	·	-7	0	i	1.5	-0.4	·
CC(=O)Nc1c(O)[nH]c2ccccc12	·	·	·	0.66	-15	-2	·	·	0.3	4.2
Cn1nc(-c2ccccc2)cc1NS(=O)(=O)c1ccccc1	-2	-7	-1.8	0.66	1	-4	i	-1.0	0.5	4.9
O=C(N/N=C/c1coc2ccccc2c1=O)c1cn(-c2ccccc2)nc1-c1ccccc1	-7	-7	-11	·	-17	21	i	-17	-1.8	·
Cc1ccc2nc(C)cc(N/N=C/c3ccccc3O)c2c1	1	7	-3.0	·	-9	2	i	8.6	0.8	·
Cc1c(C)[n+](=O)c(-c2cccs2)c(C)n1[O-]	·	·	·	0.68	5	1	·	·	-0.1	-0.9
CCOc1cc(/C=C/c2ccc3cccc([N+](=O)[O-])c3n2)cc(Cl)c1O	·	·	·	0.69	35	18	·	·	0.7	4.3
COc1cc2c(cc1OC)C(c1cc(OC)c(OC)cc1[N+](=O)[O-])N(C(C)=O)CC2 (centres undefined)	7	12	-2.1	0.66	11	4	i	0.0	0.3	0.9
O=S(=O)(Nc1ccc2c(c1)OCCO2)c1cnc[nH]1	·	·	·	0.73	-2	-1	·	·	-0.6	2.0
CC(C)CNC(=O)c1cc(-c2ccc3c(c2)OCO3)on1	-13	-2	-0.7	0.67	2	3	i	-1.1	-4.2	2.2
Cc1ccc(OCC(=O)NNC(=O)c2ccc3c(=O)n4c(nc3c2)CCC4)cc1	2	11	0.4	0.65	-1	-8	i	7.4	0.0	-10
O=S(=O)(c1ccc2ccccc2c1)N1CCN(C2CCN(Cc3ccccc3)CC2)CC1	·	·	·	0.7	45	-1	·	·	0.2	5.4
O=C(/C=C/c1c(Cl)nc2ccccn12)N1CCCCC1	-2	-2	-0.6	0.72	-13	8	i	2.9	-0.1	8.5
CNC(=O)COc1coc(CN2CCN(c3ccccc3OC)CC2)cc1=O	16	15	-0.3	0.63	-8	·	i	-1.3	0.2	-1.0
O=C(COc1ccc2c3c(c(=O)oc2c1)CCCC3)NCCCn1ccnc1	0	4	0.0	0.66	7	·	i	1.7	-0.4	-33

One compound at a time, as listed above. Screens in order: Ecoli rRNA inh | Ecoli rRNA inh OD600 | Ecoli rRNA inh RFP | Ecoli growth | T cruzi inh | Beta cell apopt | FGF22 binding | AF4-AF9 inh | Bfl-1 A1 inh | UCH37 inh
`O=S(=O)(Nc1ccc2c(c1)OCCO2)c1cnc[nH]1` reads · | · | · | 0.73 | -2 | -1 | · | · | -0.6 | 2.0
`Cn1nc(-c2ccccc2)cc1NS(=O)(=O)c1ccccc1` reads -2 | -7 | -1.8 | 0.66 | 1 | -4 | i | -1.0 | 0.5 | 4.9
`Cc1ccc2nc(C)cc(N/N=C/c3ccccc3O)c2c1` reads 1 | 7 | -3.0 | · | -9 | 2 | i | 8.6 | 0.8 | ·

Screening data (PubChem BioAssay)

The list is partial. The share of hits here may be higher or lower than overall.
